NPYLR7 agonist = mosquito NPYLR7 agonism. 0.15% of 270,000 active. HEK293T NPYLR7/Galpha15, GCaMP6s calcium fluorescence. activation, % at 10 µM; in the data active = activation above about 40%;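 note: 0% = vehicle and 100% = reference agonist at the receptor; some compounds past the cut are filed as inactive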
NPYLR7 agonist max-min = second read-out of NPYLR7 agonist, no call of its own (marks repeat the call); activation, %; measured here: Max-Min RFU normalised activation; some inactives read as strong as hits;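 span of the calcium signal over five minutes; 0% = vehicle and 100% = native peptide agonist; compound fluorescence can raise it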
* hit, by the source's call; & = joins results of further samples.

SMILES	NPYLR7 agonist	NPYLR7 agonist max-min
C=CCN(Cc1ccc(Cl)s1)S(=O)(=O)Cc1ccccc1	2.7	2.0
N#Cc1cccc(NC(=O)NCc2cc(F)cc(F)c2)c1	1.9	-0.2
COC(=O)C1=C(C)N(CC2CCCO2)C(=O)/C1=C\c1cc(C)n(-c2ccc(C)cc2C)c1C (centres undefined)	0.5	-0.3
O=C(c1csc(CSc2nnc(-c3ccncc3)n2-c2ccccc2Cl)n1)N1CCN(c2ccccc2F)CC1	-5.1	3.0
Cc1ccc(OCCN(C)C2CCN(S(C)(=O)=O)CC2)cc1	-5.7	-6.2
Cc1cc(C(=O)N(CCCN(C)C)c2nc3ccc(F)cc3s2)nn1C	3.4	1.6
Cc1ccc(CN(CCc2ccccc2)C(=O)CN(CCN2CCCCC2)C(=O)Nc2ccccc2C)o1	-12.1	-21.0
Cc1ccc(F)c(NC(=O)CNC(c2nccn2C)C2CC2)c1 (centres undefined)	1.5	1.9
CSc1ncccc1C(=O)NC1CC(C)(C)Cc2c1cnn2-c1ccccc1C (centres undefined)	14.8	3.1
C=CCc1c(C)c(C#N)c2nc3ccccc3n2c1Cl	8.2	6.4
CN(C)CCCNC(=O)C(=Cc1ccccc1)NC(=O)c1ccccc1	-1.1	-0.5
CCOc1ccc(NC(=O)Nc2cccc(C3SCC(=O)N3c3cc(C)ccc3OC)c2)cc1 (centres undefined)	6.7	16.3
CC(=O)Nc1nc(C2CC2)cc(-c2ccco2)c1C#N	-13.0	-15.6
CCOC(=O)c1nc2ccccc2nc1N1CCCN(C(=O)c2cc(OC)cc(OC)c2)CC1	4.2	3.4
CCc1ccc2nc(N3CC(O)C3)cc(C)c2c1	9.7	8.1
COc1cccc2sc(N(CCCN(C)C)C(=O)c3cc(C)nn3C)nc12	0.5	-1.0
CCSc1nn(CC(=O)Nc2cccc(C)c2C)c(N)c1S(=O)(=O)c1ccc(C)cc1	4.1	-6.2
CC(c1ccc(Cl)cc1)N(C(=O)c1ccc(S(C)=O)cc1)C1CC1 (centres undefined)	9.7	7.6
Cc1cc(C)n(-c2ccc(Cl)cc2)c(=O)n1	-3.8	1.5
CCSCCC(C)NC(=O)c1sccc1OC (centres undefined)	10.0	6.7
CC(c1ccc(-c2ccc(S(N)(=O)=O)cc2F)cc1)N1CCOCC1 (centres undefined)	19.2	15.9
O=C(NCc1scnc1-c1ccccc1)c1cn(Cc2ccc(Cl)cc2)nn1	3.2	-2.9
CCOc1ccccc1CN(CC)C(=O)c1c[nH]c2ccc(OC)cc2c1=O	-7.4	-7.5
CCCCCCCCOc1ccc(/C=C/C(=O)Nc2nc3ccccc3s2)cc1	4.2	-6.8
CC1CCN(C(=O)C(C)N2CCN(Cc3ccc(C#N)cc3)CC2)CC1 (centres undefined)	1.4	-0.1
(cont.)
SMILES	NPYLR7 agonist	NPYLR7 agonist max-min
O=C(C1CC1)N1CCc2c(ncnc2NCc2cnc3ccccn23)C1	16.0	20.2
O=C(NCCc1ccccc1)c1cc2n(n1)CCN(Cc1ccc(Cl)cc1)C2=O	-0.1	9.7
Cc1cc(C)cc(NC(=O)c2nnn(CC(=O)Nc3ccc(C)cc3C)c2N)c1	-3.5	-7.3
CC(C)c1ccc(-c2noc(CSc3nnc4n3CCCCC4)n2)cc1	1.1	10.4
Cn1cnc(S(=O)(=O)NC(c2ccccc2)C2CC2)c1Cl (centres undefined)	0.0	-2.0
CCc1nnc(CN(C(=O)CC2C(=O)NCCN2C(C)C)C(C)C)o1 (centres undefined)	19.2	5.1
Cc1nc(-c2ccccc2)n(CC(=O)N2CCCC(O)C2)c1C (centres undefined)	6.2	-0.6
CNc1ccc(S(=O)(=O)c2ccc(NC)cc2)cc1	5.6	3.2
O=C(O)CC1c2cccnc2C(=O)N1c1c(Cl)cccc1Cl (centres undefined)	3.9	7.5
O=c1ccc(-c2ccco2)nn1CCCNS(=O)(=O)c1ccc(C(F)(F)F)cc1	-1.9	-2.6
Cc1csc(CN(C)C(=O)NC2CCSc3ccccc32)n1 (centres undefined)	6.3	5.0
CCN(Cn1nc(-c2cccc(Cl)c2)oc1=S)C1CCS(=O)(=O)C1 (centres undefined)	-4.2	-4.3
Clc1ccc(CNCc2cccnc2N2CCN(c3ccccn3)CC2)cc1	3.8	-1.0
O=C(N[C@@H]1CCCCC1NC(=O)C1CCCN(C(=O)c2cc(C(F)(F)F)cc(C(F)(F)F)c2)C1)c1ccc(F)cc1 (some centres undefined)	2.1	8.3
COCCCN(CC(=O)N(CCc1c[nH]c2ccccc12)Cc1ccc(C)cc1)C(=O)Nc1ccc(F)c(Cl)c1	-7.0	-3.9
O=C(NCc1ccccc1)c1nn2c(C(F)(F)F)cc(-c3ccc(Br)cc3)nc2c1Cl	-10.3	-14.3
CN(OCc1ccc(Cl)c(Cl)c1)C(=O)Nc1ccccc1	3.6	-0.5
CN(C=[N+](C)C)c1cccc2c1C(=O)c1ccccc1C2=O	-3.9	-4.4
COc1cc(-c2ccc(=O)n(Cc3ccc(C)cc3)n2)cc(OC)c1OC	14.9	10.8
Cc1nc(C)c(CN2CC(C)C(=O)Nc3ccccc32)s1 (centres undefined)	-21.9	-25.7
O=C(NCCO)c1ccc(OCc2ccc(Cl)s2)cc1	7.9	4.3
C=CCNC(=O)COc1coc(CN2CCN(c3ccccc3)CC2)cc1=O	-1.5	25.0
COCCc1noc(CN2CC[C@H](CO)[C@H](O)C2)n1	15.5	6.5
C=C1/C(=C/C=C2/CCC[C@]3(C)[C@@H]([C@H](C)CCCC(C)C)CC[C@@H]23)C[C@@H](O)C[C@@H]1O	24.4	22.8
CC(C)=CC(=O)N1C[C@H](N)C[C@H]1C(=O)NC(C)C	-4.3	-8.7
Next compounds.
SMILES	NPYLR7 agonist	NPYLR7 agonist max-min
CNC(=O)c1cccc(-c2cc3c(cn2)nc(NCc2cccc(C)c2)n3C)c1	6.5	3.2
Cc1nn(CN2CCC(NC(=O)NC3CCCCC3)CC2)c(=S)s1	10.1	6.6
CC(C)(C)C(=O)Nc1nnc(SCC(=O)c2cccc([N+](=O)[O-])c2)s1	-0.8	8.4
CCN(C(=O)c1cccc(C(=O)OC)c1)C12CC3CC(CC(C3)C1)C2	5.2	3.9
COc1ccccc1-c1nc(=S)c2c([nH]1)Oc1ccccc1C2	6.3	6.8
Cc1ccc(-n2c(=O)cc(N3CC(C)CC(C)C3)[nH]c2=O)cc1 (centres undefined)	8.5	9.8
CC1CCCC(c2ccccc2)N1Cc1nc(N)nc(N(C)C)n1 (centres undefined)	17.2&-1.0	4.0&-2.6
COCCNC(=O)C1(c2ccnc(Nc3cc(OC)c(OC)c(OC)c3)c2)CC1	11.3	24.0
O=C(CN1CCSC1=O)Nc1ccc2c(c1)OCO2	3.2	4.5
COCCN(Cc1ccsc1)Cc1ccc(C(=O)OC)o1	-4.4	0.8
COC(=O)c1c(C)oc2ccc(NS(=O)(=O)c3ccc(C)c([N+](=O)[O-])c3)cc12	-6.8	-10.2
CC(=NNC(N)=S)C1=CC(C)(C)CCC1	4.9	44.2
Cc1nc2c(OCC3CCCCC3)cccn2c1N(C)CC1CC1	7.3	-0.5
O=C(NCCn1ncc2ccccc2c1=O)[C@H]1Cc2ccccc2CN1	5.1	5.0
CCc1nc(NC(=O)NCc2ccc(Cl)cc2Cl)nn1C	18.4	11.6
Cc1ccc(Cl)c(Oc2cc(N3CCN(C(=O)c4ccccc4Br)C(C)C3)ncn2)c1 (centres undefined)	-3.1	14.4
O=C(CCc1ccccc1)N1CCCC(OCC2CC2)C1 (centres undefined)	2.6	6.7
O=C(CC12CC3CC(CC(C3)C1)C2)NNC(=O)c1ccncc1	-2.6&-8.1	-12.6&-12.0
COC(=O)CCNC(=O)CC(=O)Nc1ccc(C)cc1C	11.7	8.0
COc1ccccc1CN(Cc1ccccc1)Cc1nc(C(=O)NCCN(C)C)co1	9.3	18.2
CC(NNC(=O)c1ccccc1)c1ccccc1 (centres undefined)	-18.1	-30.1
CCOC(=O)Cn1ncc2c1CCN(Cc1cccc(F)c1)C2	2.1	20.7
N#Cc1ccc(C(=O)N(Cc2ccncc2)c2nc3c(F)cccc3s2)cc1	-6.3	-11.6
CCOC(=O)CCC(=O)N(CCOC)CC(=O)N1CCc2sccc2C1c1ccccc1C (centres undefined)	-12.1	-8.9
O=C(c1ccccc1[N+](=O)[O-])N1CCN(c2ccc(Nc3ccccc3)nn2)CC1	2.1	1.5

The list goes on, starting with the last 6 of the part before.
SMILES	NPYLR7 agonist	NPYLR7 agonist max-min
COc1ccccc1CN(Cc1ccccc1)Cc1nc(C(=O)NCCN(C)C)co1	9.3	18.2
CC(NNC(=O)c1ccccc1)c1ccccc1 (centres undefined)	-18.1	-30.1
CCOC(=O)Cn1ncc2c1CCN(Cc1cccc(F)c1)C2	2.1	20.7
N#Cc1ccc(C(=O)N(Cc2ccncc2)c2nc3c(F)cccc3s2)cc1	-6.3	-11.6
CCOC(=O)CCC(=O)N(CCOC)CC(=O)N1CCc2sccc2C1c1ccccc1C (centres undefined)	-12.1	-8.9
O=C(c1ccccc1[N+](=O)[O-])N1CCN(c2ccc(Nc3ccccc3)nn2)CC1	2.1	1.5
Cc1nnc(NC(=O)c2cccc(S(=O)(=O)N3CCCCCC3)c2)s1	4.0	-4.4
COCCCNC(=O)c1c(C(F)(F)F)nn(C2CCCN(C(C)C)C2)c1C (centres undefined)	9.1	-0.1
O=C(O)COc1cccc(-c2ocnc2-c2nc(-c3ccccc3)c(-c3ccccc3)o2)c1	-6.9	-15.4
COc1ccc(-n2ccnc2-c2ccccc2OCC(=O)O)cc1	21.3	14.3
COCCn1c(O)c(C=Nc2ccsc2C(=O)OC)c(=O)[nH]c1=S	-4.0	-4.5
O=C(NCCNC(=O)C1CCN(C(=O)CCc2ccccc2)CC1)c1ccccc1	1.1	16.3
c1ccc(C2=Nc3ncnn3C(c3cccc4ccccc34)C2)cc1 (centres undefined)	1.5	-0.2
CCN(C(=O)CCN1CCC[C@@H](O)C1)c1ccccc1	10.5	8.6
O=S(=O)(Oc1ccc(Br)cc1Cl)c1cnc[nH]1	-1.7	13.5
O=C1CCC(C(=O)N2CCOC3(CNCCOC3)C2)=NN1 (centres undefined)	-6.7	-12.3
Cc1ccc2ccccc2c1C(O)c1ncc(-c2ccc(C(F)(F)F)cc2)[nH]1 (centres undefined)	2.8	2.1
CCC1CN(CCC(=O)N2CCN(c3cccc(C(F)(F)F)c3)CC2)Cc2cc(OC)ccc2O1 (centres undefined)	4.4	0.6
O=C(Nc1ccc(-n2cncn2)cc1C(F)(F)F)N(CC1CCCO1)CC1CCCO1 (centres undefined)	-0.7	-5.0
CC1CN(C)c2ccccc2N(S(C)(=O)=O)C1 (centres undefined)	-12.5	-10.9
O=C(Cn1cnc([N+](=O)[O-])n1)N/N=C\c1cc(Cl)ccc1O	-8.0	-13.3
CCOc1ccccc1C(=O)Nc1ccc(N2CCN(S(=O)(=O)c3cccs3)CC2)nc1	16.7	16.0
O=c1c2c(nc(NCCO)n1-c1ccccc1)-c1ccccc1CC21CCCC1	2.2	1.4
COC(=O)[C@@H]1C[C@H](NC(=O)c2cc3sccc3[nH]2)CN1C	0.9	2.9
Cc1ccc(F)cc1C(=O)N1CC[C@@H](c2ccc3c(c2)OCO3)[C@H](O)C1	1.0	-1.2
O=C(c1csc(-c2cccs2)n1)N(Cc1ccncc1)C1CCCCC1	-9.5	-15.2
CON(C)C(=O)c1cc(C)nc2cc(Br)ccc12	0.4	16.3
COc1ccc(C2CCCN2CC(=O)NC(C)c2ccccc2)c(OC)c1 (centres undefined)	-0.7	0.0
CCN(CC)c1ccc2cc(C(N)=O)c(=Nc3ccccc3OC)oc2c1	2.5	-2.7
CN(Cc1ccncc1)S(=O)(=O)c1cn[nH]c1C(C)(C)C	6.4	1.8
COCCCN(CC(=O)N1CCc2sccc2C1c1ccc(Cl)cc1)C(=O)c1cccc(Br)c1 (centres undefined)	-1.2	11.1

Pulled by structure from the entries so far (five):
SMILES	NPYLR7 agonist	NPYLR7 agonist max-min
c1ccc(C2=Nc3ncnn3C(c3cccc4ccccc34)C2)cc1 (centres undefined)	1.5	-0.2
COC(=O)[C@@H]1C[C@H](NC(=O)c2cc3sccc3[nH]2)CN1C	0.9	2.9
O=C(O)COc1cccc(-c2ocnc2-c2nc(-c3ccccc3)c(-c3ccccc3)o2)c1	-6.9	-15.4
O=C1CCC(C(=O)N2CCOC3(CNCCOC3)C2)=NN1 (centres undefined)	-6.7	-12.3
COCCCN(CC(=O)N1CCc2sccc2C1c1ccc(Cl)cc1)C(=O)c1cccc(Br)c1 (centres undefined)	-1.2	11.1

Returning to the listing; the 2 compounds before the break are reprinted first.
SMILES	NPYLR7 agonist	NPYLR7 agonist max-min
CN(Cc1ccncc1)S(=O)(=O)c1cn[nH]c1C(C)(C)C	6.4	1.8
COCCCN(CC(=O)N1CCc2sccc2C1c1ccc(Cl)cc1)C(=O)c1cccc(Br)c1 (centres undefined)	-1.2	11.1
FC(F)Sc1nnc2sc3ccccc3n12	-2.1	-2.8
Cc1cc(N2CCN(Cc3ccc4c(c3)OCO4)CC2)nc(SCc2ccc(C(=O)O)o2)n1	13.9	26.1
Cc1ccc(C)c(C(=O)COc2ccc(-c3nnco3)cc2)c1	7.8	8.4
CC(C)(Oc1ccccc1)C(=O)OCCN1CCOCC1	-26.1	-34.4
CN(Cc1ccccc1)Cc1c(O)ccc2c1O/C(=C\c1ccncc1)C2=O	36.5	35.3
C=CCc1cc(CN2CCN(c3ccncc3)CC2)ccc1OC	1.6	16.6
COc1cccc(CSc2nnc(C(C)NC(=O)c3ccc(OC)cc3OC)n2-c2cc(Cl)ccc2Cl)c1 (centres undefined)	26.5	25.1
CCCCC(=O)N(C)c1c(CC)nc2c(OCC(=O)N3CCOCC3)cccn12	-3.0	-0.7
CC(=O)NCCNC(=O)C1(C)CCN1CCOc1ccccc1 (centres undefined)	6.7	-0.5
CC(C)NC(=O)[C@@H](C)N1Cc2ccc(-c3ccnn3C)nc2C1=O	5.3	3.8
Cc1nn(-c2ccccc2)c(N)c(-c2ccccc2)c1=O	4.8	3.4
COCC(=O)Nc1cc(C(=O)N(C)CCc2cnn(C)c2)cc2nc(-c3ccccc3)n(C)c12	24.6	8.6
O=C(NC1CCC(n2cnnc2)CC1)C1(c2ccccc2)CC12CCCC2 (centres undefined)	-0.5	-2.0

An excerpt, so the mix of outcomes need not match the whole.
